Screening results as filed in PubChem.
Rce1 inh = inhibitors of yeast Ras-converting enzyme | Q03530 | yeast membranes, quenched prenylated peptide cleavage fluorescence | calls only | 290,000 compounds, 0.27% hits | AID 2563;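 active = fall in fluorescence gain of 50% or more versus controls, with final raw signal at or below 3038400; inconclusive = same 50% fall but final raw signal above 3038400; inactive = fall in fluorescence gain under 50%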;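 also: plate controls were neutral control wells for no effect and wells lacking membranes for full effect; tested at 10 µM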
Target sequence (Q03530 whole entry, looked up): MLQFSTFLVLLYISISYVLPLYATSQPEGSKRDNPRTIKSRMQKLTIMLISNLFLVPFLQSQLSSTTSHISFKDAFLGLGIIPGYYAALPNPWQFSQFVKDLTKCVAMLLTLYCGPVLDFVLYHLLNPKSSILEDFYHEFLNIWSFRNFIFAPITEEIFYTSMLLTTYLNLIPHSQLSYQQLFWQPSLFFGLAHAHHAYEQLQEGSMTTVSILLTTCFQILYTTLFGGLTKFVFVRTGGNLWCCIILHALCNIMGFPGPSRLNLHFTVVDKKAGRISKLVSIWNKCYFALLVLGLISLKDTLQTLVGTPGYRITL
Env fusion inh = inhibitors of HIV Env-mediated cell fusion. HeLa-JRFL Env/CEM21 cell fusion, luciferase. inhibition, % at 12.3 µM. 360,000 compounds, 1.1% hits;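 active = mean replicate inhibition score of at least 50 and every replicate individually at or above 50; inconclusive = only one of the two criteria met; inactive = mean below 50 and not all replicates reaching 50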;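 also: 0% = plate neutral controls and 100% = maraviroc near 300 nM; one replicate is shown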
CSC inhib = cancer stem cell inhibition; cancer stem cell-like cells viability, luminescence; inhibition, % at 7.5 µM; 300,000 compounds, 1.1% hits;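 active = mean at 75% or more and at least half the replicates too; inconclusive = mean and replicates disagree; tested in HMLE shEcad cells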;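 also: 0% = median of negative and 100% = median of positive control wells; the first replicate is given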
PABP polyA inh = blocks human PABP binding to poly(A) RNA; P11940; fluorescence polarization; inhibition, % at 35 µM; 290,000 compounds, 1% hits; AID 2014;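 active = 50% or more with normal probe brightness, or confirmed in later tests; inconclusive = above 50% with abnormal brightness, or retests that disagree; inactive = below 50% or failed in later tests; about a fifth of its hits are not listed in these tables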;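 also: calls also rest on retests at 20 µM and on dose response follow-up; controls were probe without protein and protein plus probe with vehicle; some compounds called inactive have numbers as strong as hits; many hits fall short of the cut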
Target sequence (P11940 whole entry, looked up): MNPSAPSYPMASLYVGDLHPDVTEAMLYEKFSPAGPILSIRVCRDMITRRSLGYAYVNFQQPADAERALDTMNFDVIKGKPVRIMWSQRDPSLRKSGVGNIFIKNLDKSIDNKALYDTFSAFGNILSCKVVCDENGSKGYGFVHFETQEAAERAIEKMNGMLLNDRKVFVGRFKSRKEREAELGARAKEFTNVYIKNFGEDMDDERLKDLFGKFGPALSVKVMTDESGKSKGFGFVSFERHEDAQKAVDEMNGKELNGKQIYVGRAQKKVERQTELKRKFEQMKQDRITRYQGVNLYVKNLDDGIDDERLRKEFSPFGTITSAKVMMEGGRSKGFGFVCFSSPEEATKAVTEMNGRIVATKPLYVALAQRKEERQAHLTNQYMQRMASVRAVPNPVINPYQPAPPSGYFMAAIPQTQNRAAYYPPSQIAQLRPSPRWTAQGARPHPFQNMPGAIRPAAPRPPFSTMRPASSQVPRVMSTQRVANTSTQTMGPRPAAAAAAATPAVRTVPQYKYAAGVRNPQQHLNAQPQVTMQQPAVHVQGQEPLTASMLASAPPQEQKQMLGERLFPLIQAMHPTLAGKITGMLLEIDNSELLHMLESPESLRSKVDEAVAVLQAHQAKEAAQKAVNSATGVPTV
MT1-MMP act inh = inhibitors of human MT1-MMP activation | P50281 | HT1080 RFP-PRO-GFP cells, GFP/RFP ratio fluorescence, overnight; percent of plate control window, DMSO zero | GFP/RFP ratio change, % at 20 µM | 360,000 compounds, 0.061% hits;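 active = GFP/RFP ratio change of at least 30% with cell ATP level not reduced by more than half and red fluorescence within 50% of control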; also: strong numbers were not always called active
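Material: RFP-PRO-GFP reporter HT1080 cells. Dosing: single-point 20 µM compound, 1% DMSO. Controls: DMSO and RFP-L50D-GFP cell wells. Timing: cells overnight before dosing, compound overnight, 37 °C, 5% CO2. Measure: GFP/RFP fluorescence ratio.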
eIF4H inh = inhibitors of RNA binding by human eIF4H. eIF4H fluorescence polarization binding assay. 290,000 compounds, 0.94% hits. AID 2012. Q15056. inhibition, % at 35 µM;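 active = 50% or more with normal probe brightness, or confirmed in later tests; inconclusive = above 50% with abnormal brightness, or retests that disagree; inactive = below 50% or failed in later tests; about a fifth of its hits are not listed in these tables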;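 also: calls also rest on retests at 20 µM and on dose response follow-up; 0% = protein and probe with vehicle and 100% = probe without protein; strong numbers were not always called active; many hits fall short of the cut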
UUG fidelity = modulators of start codon recognition fidelity in yeast | 350,000 compounds, 0.13% hits | S. cerevisiae UUG-firefly luciferase reporter, luminescence/redox ratio | activity score, % at 18.7 µM | AID 602363;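 active = replicate mean at a twofold rise or more, about +100% in these data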;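 also: firefly luciferase made from a UUG start codon reports start codon fidelity; reporter light over untreated wells divided by growth signal over untreated wells; some hits fall short of that in this replicate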
eIF4H inh retest = recorded beside eIF4H inh, whose call it bears; inhibition, %; compound at 20 µM; confirmation average;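 mean of two retest wells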
PABP polyA inh retest = recorded beside PABP polyA inh, whose call it bears; inhibition, %; compound at 20 µM; confirmation repeats;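 mean of two retest wells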
MT1-MMP act inh RFP = further read-out of MT1-MMP act inh, marked with its call; RFP signal change, %; measured here: RFP expression control read;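 0 = vehicle wells; hits needed this value within 50% of zero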
An asterisk follows results filed as active; i = inactive; ? = inconclusive; . = no result given. Some of the compounds tested. The share of hits here may be higher or lower than overall.

SMILES	Rce1 inh	Env fusion inh	CSC inhib	PABP polyA inh	MT1-MMP act inh	MT1-MMP act inh RFP	eIF4H inh	UUG fidelity	others
COCc1cc(OC(=O)N(C)C)nc(-c2ccccc2)n1	i	0.7	-8.1	-7.0	-3.8	2.7	-5.0	-5.9
CN1C2CCC1CC(OC(=O)c1ccc(Cl)cc1)C2 (configuration not stated)	i	.	28.4	-4.0	-3.2	0.2	-8.9	1.3
C=CCn1c(O)c(/C(C)=N/N2CCCCC2)c(=O)[nH]c1=O	i	8.3	-9.8	0.2	6.3	3.3	3.7	.
CCn1c(=O)n(CC)c2cc([N+](=O)[O-])c(N3CCNCC3)cc21	i	-2.9	5.0	10.1	-0.5	-2.4	13.1	-6.9
O=C(c1ccco1)c1cn(Cc2ccccc2Cl)c2ccccc12	i	.	31.2	3.7	-1.9	-0.7	4.2	.
CC(=Nc1c(C)n(C)n(-c2ccccc2)c1=O)c1c(O)n(Cc2ccccc2)c(=O)[nH]c1=O	i	3.1	-9.0	-5.8	-4.7	-1.0	5.4	4.7
Cc1cc(C)n2c(Br)c(CN3CC4CC(C3)c3cccc(=O)n3C4)nc2n1 (configuration not stated)	i	-17.3	-1.7	8.4	-2.1	4.6	4.1	-5.8
CCC(=NCCC(c1ccccc1)c1ccccc1)c1c(O)n(C)c(=O)n(C)c1=O	i	-60.0	.	-12.9	-0.3	-4.6	-3.5	-13.3
CNC(=O)c1cccn(Cc2cccc(C(F)(F)F)c2)c1=O	i	-0.4	4.1	10.3	4.9	-3.9	-2.3	.
C[C@@H]1CC2(CCCC[N+]2(C)C)C[C@H]1C	i	9.3	6.9	-4.8	-0.2	2.9	-4.3	.
COc1ccc(-n2c(/C=C3/C(=O)Nc4ccccc43)nc3ccccc3c2=O)cc1	i	16.3	0.5	-4.9	-11.9	-9.7	1.6	.
COc1cc(-c2ccc(N)c(OC)c2)ccc1N	.	.	5.4	.	7.1	0.3	.	-9.9
COC(=O)C1=C(c2ccc(F)cc2OCc2ccccc2)C[C@@H]2CC[C@H]1N2C(=O)NCc1ccc(Cl)cc1	.	16.9	15.5	.	-6.8	-7.1	.	-23.7
COC(=O)C1=C(c2ccc(OC)c(OC)c2)C[C@@H]2CC[C@H]1N2C(=O)N1CCC(O)CC1	.	-27.4	-3.2	.	5.8	5.2	.	-5.6
Cc1ccccc1OCCN=Cc1c(O)n(C)c(=O)n(C)c1=O	i	35.8	5.6	-8.9	7.8	-10.5	2.4	-5.7
O=C(Cc1ccc(N(CCCl)CCCl)cc1)NC(Cc1ccc(Cl)cc1)C(=O)O (configuration not stated)	i	4.0	-2.2	6.3	-2.3	2.5	5.5	-19.3
COc1ccc(C(O)c2cc(OC)ccc2OP(=O)(N(C)C)N(C)C)cc1 (configuration not stated)	i	.	-3.3	-9.1	0.0	0.7	-10.3	.
Nc1ccccc1C(=O)OCC(=O)N1CCc2ccccc21	i	-207.8	.	-6.7	2.3	1.1	5.5	-18.2
O=C(/C=C/C=C/c1ccccc1)CC1(O)C(=O)Nc2ccccc21 (configuration not stated)	i	-2.0	-5.5	0.2	-12.5	1.7	8.3	.
Cc1cc(O)c(CN2CC=C(c3ccccc3)CC2)cc1C(C)C	i	15.2	.	11.6	2.1	1.5	8.0	-7.9
CN(C)CCN(CC1CCCN(Cc2ccccc2F)C1)C(=O)Cc1ccc(F)c(F)c1 (configuration not stated)	i	-135.3	-14.0	0.6	6.6	4.5	-2.4	-23.0
O=C1CCCC2=C1C(c1cccnc1)Nc1ccccc1N2 (configuration not stated)	i	23.2	-11.0	2.8	-3.6	4.0	-5.3	-6.5
CCCC(C)C1(CC)C(=O)NC(=Nc2ccccc2)NC1=O (configuration not stated)	i	-30.2	-8.2	-4.4	-1.7	2.3	-3.1	-22.0
OC1(c2ccc(F)cc2)CC2CCC(C1)N2Cc1nnnn1C1CCCC1 (configuration not stated)	i	.	1.3	-3.0	1.8	-4.1	1.2	.
O=C(NCC1=C(c2ccc3ccccc3c2)C[C@@H]2CC[C@H]1N2Cc1ccco1)c1nccs1	.	-2.5	.	.	-2.1	3.8	.	-4.4

Overlap with the part before: three entries, then new ones.
SMILES	Rce1 inh	Env fusion inh	CSC inhib	PABP polyA inh	MT1-MMP act inh	MT1-MMP act inh RFP	eIF4H inh	UUG fidelity	others
CCCC(C)C1(CC)C(=O)NC(=Nc2ccccc2)NC1=O (configuration not stated)	i	-30.2	-8.2	-4.4	-1.7	2.3	-3.1	-22.0
OC1(c2ccc(F)cc2)CC2CCC(C1)N2Cc1nnnn1C1CCCC1 (configuration not stated)	i	.	1.3	-3.0	1.8	-4.1	1.2	.
O=C(NCC1=C(c2ccc3ccccc3c2)C[C@@H]2CC[C@H]1N2Cc1ccco1)c1nccs1	.	-2.5	.	.	-2.1	3.8	.	-4.4
CCCC12CN3CC(CCC)(CN(C1)C3c1ccccn1)C2=O (configuration not stated)	i	0.0	-15.3	-0.5	3.4	4.2	-8.4	-23.0
COc1cc2c3c(c1OC)-c1cc(O)ccc1CC3NCC2 (configuration not stated)	i	.	-10.6	16.5	0.4	2.1	-0.4	-8.8
Cc1nn(-c2ccccc2)c2c1CC1(C(=O)N(C)C(=O)N(C)C1=O)C1CCCCN21 (configuration not stated)	i	-45.0	-7.8	-0.5	-7.1	2.4	2.3	-18.6
c1ccc2c3c(ccc2c1)OCC1CONC31 (configuration not stated)	i	0.2	-9.8	17.4	.	.	-3.7	.
CC1=CC(C)C(COC(N)=O)(COC(N)=O)C(C)C1 (configuration not stated)	i	.	-12.4	7.4	-3.8	-1.2	-3.3	-6.5
COc1cccc(C(=O)C2CCCN(C3CCOCC3)C2)c1 (configuration not stated)	i	0.3	8.1	-14.1	-3.0	3.8	-3.3	4.5
Cc1ccccc1CN1CCN(Cc2ccccc2)CC1	i	-8.2	16.0	10.2	2.7	-1.2	-5.8	.
CN1C(=O)NC(=O)/C(=C\C=C\c2ccccc2[N+](=O)[O-])C1=O	i	-154.0	4.6	-1.2	.	.	12.1	.
COP(=O)(OC)C1(Nc2ccc(C)cc2)CCCCC1	i	.	-0.4	-13.8	-2.8	2.8	5.8	-1.8
CN1CCN(c2nc3ccccc3c(=O)n2-c2ccccc2)CC1	i	-5.3	0.3	-4.9	-1.0	2.6	6.7	-9.2
COc1ccc(C(C)=O)cc1CC(C(=O)c1ccccc1)N(C)C (configuration not stated)	i	7.7	13.5	1.8	-7.9	-1.4	3.5	-16.2
CCOC(=O)c1c(C)n(Cc2ccco2)c2ccc(OC)cc12	i	.	-2.5	-1.7	-0.1	-4.0	-1.0	-6.7
CN(C)CCc1nc2ccccc2c(=O)n1-c1ccccc1	i	.	-19.6	-2.9	.	.	-2.7	.
Cc1ccn2nc(S(=O)(=O)Nc3c(F)cccc3F)nc2n1	i	-23.3	-5.8	7.0	-0.7	2.7	16.0	6.3
CC(O)(CS(=O)(=O)c1ccc(F)cc1)C(=O)Nc1ccc(C#N)c(C(F)(F)F)c1 (configuration not stated)	i	.	-5.5	-7.0	.	.	4.3	.
CNC(=S)N(C)CCc1cc2c(c(OC)c1/C=C1/C(=O)NC(=O)N(C)C1=O)OCO2	i	-5.8	-9.4	?	1.5	1.7	?	.
Cc1cc(C)c2c(c1)NP(=S)(c1ccccc1)N2 (configuration not stated)	.	-3.2	.	.	4.0	-2.7	.	-15.9
Cc1cc(/C=C2/C(=O)NC(=O)N(Cc3ccco3)C2=O)c(C)n1-c1ccc(C(=O)O)cc1	i	5.6	-0.8	47.1	-4.4	4.4	84.0	.	eIF4H inh retest=42.8;PABP polyA inh retest=23.1
O=C(c1ccccc1[N+](=O)[O-])N1CCC2(CC1)OCCO2	i	2.9	.	12.9	-0.9	-5.6	-7.5	-4.6
O=c1[nH]c(O)c(/C=C2\C=Nc3ccc(OCc4ccccc4)cc32)c(=O)[nH]1	i	-22.5	-11.4	?	2.7	-3.4	?	-16.0
c1ccc2c(c1)CC1CNCc3cccc(c31)S2 (configuration not stated)	i	-10.6	5.5	5.3	-1.3	5.6	-3.4	.
COC(=O)C1=C(c2ccc(S(C)(=O)=O)cc2)C[C@@H]2CC[C@H]1N2C	.	1.2	-15.8	.	2.5	4.8	.	-15.9
O=P(Oc1ccccc1)(Oc1ccccc1)C(Nc1ccccc1)c1ccccc1 (configuration not stated)	i	.	15.0	56.4	-6.7	-7.6	-5.4	.	eIF4H inh retest=9.0;PABP polyA inh retest=5.2
CC(C)CC12CN3CCN(CC(C3)C1O)C2 (configuration not stated)	i	-5.5	10.8	-10.9	-9.7	-1.7	-8.4	-5.8
O=C(N[C@H]1CP(=O)(Oc2ccccc2)O[C@H](COCc2ccccc2)[C@H]1O)C(Cl)(Cl)Cl (some centres not stated)	i	-27.2	-3.0	-17.7	-0.8	0.4	-17.0	-16.1

The closing 6 compounds of the section before lead into the next:
SMILES	Rce1 inh	Env fusion inh	CSC inhib	PABP polyA inh	MT1-MMP act inh	MT1-MMP act inh RFP	eIF4H inh	UUG fidelity	others
O=c1[nH]c(O)c(/C=C2\C=Nc3ccc(OCc4ccccc4)cc32)c(=O)[nH]1	i	-22.5	-11.4	?	2.7	-3.4	?	-16.0
c1ccc2c(c1)CC1CNCc3cccc(c31)S2 (configuration not stated)	i	-10.6	5.5	5.3	-1.3	5.6	-3.4	.
COC(=O)C1=C(c2ccc(S(C)(=O)=O)cc2)C[C@@H]2CC[C@H]1N2C	.	1.2	-15.8	.	2.5	4.8	.	-15.9
O=P(Oc1ccccc1)(Oc1ccccc1)C(Nc1ccccc1)c1ccccc1 (configuration not stated)	i	.	15.0	56.4	-6.7	-7.6	-5.4	.	eIF4H inh retest=9.0;PABP polyA inh retest=5.2
CC(C)CC12CN3CCN(CC(C3)C1O)C2 (configuration not stated)	i	-5.5	10.8	-10.9	-9.7	-1.7	-8.4	-5.8
O=C(N[C@H]1CP(=O)(Oc2ccccc2)O[C@H](COCc2ccccc2)[C@H]1O)C(Cl)(Cl)Cl (some centres not stated)	i	-27.2	-3.0	-17.7	-0.8	0.4	-17.0	-16.1
N[C@@H](Cc1c[nH]c2ccccc12)c1nnc(SCc2ccccc2)o1	i	-44.2	11.9	10.0	-0.6	-0.5	-0.5	-15.1
Cc1c(C(=O)c2cccc3ccccc23)c2cccc3c2n1[C@H](CN1CCOCC1)CO3	i	10.0	100.1*	.	-10.9	-28.3	.	24.6
CCOC(=O)CCCCCNC(=O)c1c(O)[nH]c(=O)[nH]c1=O	i	-18.8	-17.3	.	4.1	3.2	.	4.6
FC(F)(F)c1ccc(NC2=NCCCS2)cc1	i	-14.6	.	0.6	1.0	2.3	-0.6	1.5
O=C1NCN(c2ccccc2)C12CCN(C(CCc1ccccc1)c1nnnn1-c1ccc3c(c1)OCCO3)CC2 (configuration not stated)	.	-128.7	.	.	-7.9	-15.9	.	-16.7
CN(C)Cc1ccccc1OC(=O)N(C)C	i	.	6.4	-9.5	-3.7	-2.5	5.6	2.2
